Source: PubChem BioAssay (National Center for Advancing Translational Sciences (NCATS))
VDR inh – inhibitors of human vitamin D receptor; Potency, µM, for inactives: max response, negative = inhibition, actives largely listed as inhibitors; AID 504847; VDR-SRC2-3 peptide fluorescence polarization, 2 h; actives 0.93% (n = 400,000); active = well fitted inhibition curve with a large enough effect; inconclusive = small, poorly fitted or top-dose-only effect, or another doubt; inactive = no such curve, though single readings can be large or run the other way; also: series mostly up to about 120 µM
Target sequence (P11473 whole entry, looked up): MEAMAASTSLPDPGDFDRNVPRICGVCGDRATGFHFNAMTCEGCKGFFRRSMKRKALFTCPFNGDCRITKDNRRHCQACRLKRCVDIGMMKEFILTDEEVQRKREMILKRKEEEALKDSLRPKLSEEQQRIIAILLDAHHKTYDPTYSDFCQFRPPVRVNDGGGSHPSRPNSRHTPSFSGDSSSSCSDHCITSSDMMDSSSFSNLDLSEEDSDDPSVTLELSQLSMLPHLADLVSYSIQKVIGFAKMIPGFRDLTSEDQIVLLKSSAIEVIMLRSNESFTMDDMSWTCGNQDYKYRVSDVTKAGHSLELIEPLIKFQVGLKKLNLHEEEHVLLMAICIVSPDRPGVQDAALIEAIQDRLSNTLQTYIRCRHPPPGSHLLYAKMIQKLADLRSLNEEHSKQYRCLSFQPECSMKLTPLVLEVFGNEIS
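FP read-out; VDR + SRC2-3 coactivator peptide; 23 nl compound by pintool; 2 h RT incubation; reagents held at 4 deg C, protected from light.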
* = called active by the depositor; ! = repeats disagree; [ ] = dose if it differs, or a comment. % is scaled to controls: 0 for no effect and ±100 for the full control effect; potency is read from the fitted curve at half-maximal effect.

COc1ccc(CN(Cc2cc3cc(C)ccc3[nH]c2=O)C(=O)N(C)C)cc1 was read as VDR inh 3%.
`COc1cccc(-c2noc(C3CCCN(C(=O)c4ccc(F)cc4)C3)n2)c1` (stereo not given) gave VDR inh 3%.
For COc1ccc(C2C(C(=O)c3ccc(C)o3)=C(O)C(=O)N2c2cc(C)on2)cc1OC (stereo not given) the results were VDR inh 13%.
CCCc1nnc(SCC(=O)N2CCCC2)n1CC1CCCO1 (stereo not given) was read as VDR inh 10%.
COc1ccc(-c2cc(C(F)(F)F)n3nc(-c4ccc(Cl)cc4)cc3n2)cc1OC was read as VDR inh -8%.
Screening C=CC[C@H](CC(=O)NCCO)C(=O)NC[C@H](OC(=O)[C@@H](CC=C)Cc1ccc(F)cc1)c1ccccc1 returned VDR inh 15%.
Screening Cc1ccc(C)c(S(=O)(=O)c2nnn3c2nc(N2CCCCC2)c2sccc23)c1 returned VDR inh 2%.
`CN1CCN(c2nc(-c3ccncc3)nc3ccccc23)CC1` gave VDR inh -14%.
`COc1ccc(Cn2c(C)nnc2-c2cnn(C)c2N)cc1` gave VDR inh 17%.
Screening Cc1cccc(OCC(O)CN2CCNCC2)c1 (stereo not given) returned VDR inh 1%.
Screening CC(C)OC(=O)c1nnn(-c2nonc2N)c1CSc1ccccn1 returned VDR inh -9%.
Screening CC(C)N(Cc1ccccc1)C(=O)COC(=O)/C=C/c1cnc2ccccc2n1 returned VDR inh -15%.
For Cc1cccc(OCC(=O)Nc2ncn[nH]2)c1C the results were VDR inh 4%.
For O=C(Cc1c(F)cccc1Cl)N1CCOCC1 the results were VDR inh -12%.
`COc1cc2c(cc1OC)C(=O)N(C)CC2` gave VDR inh -2%.
`Cc1ccc(C2N(C)C(=O)c3ccccc3N2C)cc1` (stereo not given) gave VDR inh -14%.
For Cc1oc2cc3oc(=O)cc(C)c3cc2c1C the results were VDR inh -1%.
Cc1ccccc1OCCCCc1c(C)n[nH]c1C was read as VDR inh 8%.
Screening Cc1csc2c(N3CCCCC3)ncnc12 returned VDR inh 5%.
CCOC(=O)c1sc(NC(=O)c2sc(C)nc2C)nc1C was read as VDR inh 6%.
O=C(CCCCCCCCC(=O)N/N=C/c1ccco1)N/N=C/c1ccco1 was read as VDR inh -2%.
For CCCC(=O)Oc1ccc2c(C)cc(=O)oc2c1 the results were VDR inh 2%.
Screening O=C(Nc1ccccc1)c1oc2ccccc2c1NC(=O)C1CC1 returned VDR inh 6%.
Screening C=C(C)CSc1nc2sc3c(c2c(=O)n1C1CCCCC1)CCN(C)C3 returned VDR inh 0%.
`Cc1ccccc1CN1C(=O)c2ccccc2S(=O)c2ccc(C(=O)NCc3ccco3)cc21` (stereo not given) gave VDR inh -8%.
Screening COc1cccc(CNS(=O)(=O)c2c(C)[nH]c(C)c2C(=O)N2CCCCC2)c1 returned VDR inh inconclusive.
For CCN(CC)CC(=O)Nc1sc(C)cc1C(=O)c1ccccc1 the results were VDR inh 6%.
For O=C(O)CCCCNS(=O)(=O)/C=C/c1ccccc1 the results were VDR inh 6%.
CCN(C(=O)c1cc2cccc(OC)c2oc1=O)c1ccccc1 was read as VDR inh 8%.
`Cc1nnc(NCc2n[nH]c(=O)c3ccccc23)c2ccccc12` gave VDR inh 61%[activator].
`CCOc1ccc(/C=C/C(=O)Nc2ccc(N3CCOCC3)cc2)cc1` gave VDR inh inconclusive.
COc1ccc(-c2noc(-c3cccc(Cl)c3)n2)cc1OC was read as VDR inh 7%.
Cc1noc(C)c1CNCc1ccccc1 was read as VDR inh -5%.
COc1ccc(C(=O)Oc2cc(C)c(CN3CCOCC3)cc2C)cc1OC was read as VDR inh -3%.
`COCCNC(=S)N(C)C1(c2ccccc2Cl)CCCCC1=O` (stereo not given) gave VDR inh -11%.
CCOC(=O)c1cccc(NC(=O)C2Cc3ccccc3N2C(=O)c2ccccc2)c1 (stereo not given) was read as VDR inh 5%.
`CC(C)n1nc(Cc2cccc3ccccc23)c(C#N)c1N` gave VDR inh -11%.
For C#CCOCCOCCOCCNc1nc(N2CCN(C(=O)C([C@@H](C)O)n3cc([C@@H](N)CCCCN)nn3)CC2)nc(N2CCN(C(=O)[C@H](CCC(=O)O)n3cc([C@@H](N)[C@H](C)CC)nn3)CC2)n1 (stereo not given in full) the results were VDR inh 1%.
For CC(C)(C)OC(=O)N1CCC(CC2CC(c3cccc(Br)c3)=NO2)(C(=O)O)CC1 (stereo not given) the results were VDR inh 8%.
Screening COc1ccc(Cn2c(=O)[nH]c3cc(C(=O)N4CCN(c5cccc(OC)c5)CC4)ccc3c2=O)cc1 returned VDR inh -10%.
O=C(CCCCCCCC(=O)NCC1CCCO1)NCC1CCCO1 (stereo not given) was read as VDR inh -1%.
`C=CCn1c2ccccc2c(=O)c2cc(C#CC3(O)CCCCC3)ccc21` gave VDR inh -17%.
Screening Cn1c(CCNC(=O)c2ccccc2F)nnc1SCC(=O)Nc1nncs1 returned VDR inh -4%.
For COc1ccc(CN2CCNC(=O)C2CC(=O)NC2CCCCCC2)c(C)c1C (stereo not given) the results were VDR inh 8%.
COc1cc(C)ccc1OCCOCCN(C)Cc1ccccc1 was read as VDR inh -6%.
O=C(NC1CCCCCCC1)c1ccc(F)c(S(=O)(=O)N2CCOCC2)c1 was read as VDR inh -26%.
CCCOc1cccc(C(=O)Nc2cc(NC(=O)c3ccco3)ccc2OC)c1 was read as VDR inh 8%.
For CCCn1c(SCC(=O)c2cc(C)n(-c3ccc4c(c3)OCO4)c2C)n[nH]c1=O the results were VDR inh 7%.
For COc1cc(C(=O)Nc2cc(-c3ccccc3)[nH]n2)cc(OC)c1OC the results were VDR inh -2%.
For COc1ccccc1OCCC(=O)OCC(=O)NCc1ccc(Cl)cc1 the results were VDR inh -9%.
N=C1C(c2nc(-c3ccc(F)cc3)cs2)=C(O)CN1CCCN1CCOCC1 was read as VDR inh 6%.
Cc1ccc(S(=O)(=O)c2cn(CC(=O)Nc3ccc(F)cc3)c3cc4c(cc3c2=O)OCO4)cc1 was read as VDR inh -4%.
CCOC(=O)Cn1nnnc1CN(Cc1ccc(OC)cc1)Cc1cc2cc(C)ccc2[nH]c1=O was read as VDR inh -5%.
COc1ccc2sc(-c3ccccc3OC)c(-c3ccc4c(c3)OCCO4)c2c1 was read as VDR inh 4%.
CCC(C)NC(=O)COc1ccc(OCc2ccccc2)cc1 (stereo not given) was read as VDR inh -25%.
O=C(COc1ccccc1[N+](=O)[O-])NCC1COc2ccccc2O1 (stereo not given) was read as VDR inh 13%.
Screening CCOC(=O)N1CCN(C(=O)/C=C/c2c(C)nn(-c3ccc(F)cc3)c2Cl)CC1 returned VDR inh -29%.
Screening COc1ccnc(Oc2ccc(F)cc2)c1C(=O)N/C=N/OCc1ccc(Cl)cc1Cl returned VDR inh -9%.
Screening CC(C)(C)C(=O)NC(=S)Nc1cc(C(F)(F)F)ccc1N1CCOCC1 returned VDR inh -3%.
Screening C[C@H]1COC(=O)[C@@H](Cc2ccc(F)cc2)C/C=C\C[C@H](CC(=O)NCCO)C(=O)N1 returned VDR inh -5%.
OC(C#CCN1CCOCC1)c1cccs1 (stereo not given) was read as VDR inh 2%.
For CCOC(=O)CSc1nc2sc3c(c2c(=O)n1-c1ccccc1)CCN(C(C)C)C3 the results were VDR inh 20%.
Screening COc1ccc(CNC(=O)C2CCN(S(=O)(=O)c3cccc(-c4noc(C)n4)c3)CC2)cc1 returned VDR inh 5%.
For O=S(=O)(Nc1ncccn1)c1cc(Cl)ccc1Cl the results were VDR inh -11%.
O=C(CNC(=O)c1ccc(N2C(=O)c3ccccc3C2=O)cc1)OCC(=O)c1ccccc1 was read as VDR inh -9%.
Screening N#Cc1ccccc1Cn1c(=O)n(CCC(=O)NCc2ccco2)c(=O)c2ccccc21 returned VDR inh -19%.
C/C(=N\NC(N)=O)c1ccc(Cl)cc1 was read as VDR inh -2%.
For COC(=O)[C@H](CC(C)C)NC(=O)c1ccc(NC[C@@H](N)CS)cc1-c1cccc2ccccc12 the results were VDR inh inconclusive.
For O=C(C1=C[C@@H](C2CC2)C[C@@H](OCCCCO)O1)N1CCN(Cc2ccccc2)CC1 the results were VDR inh 8%.
`O=C(Cn1ccc2ccccc2c1=O)NCCC(=O)NC1CCN(Cc2ccccc2)CC1` gave VDR inh 8%.
Screening Cc1noc(C)c1C(=O)OC(C)C(=O)Nc1ccc(S(=O)(=O)NC(C)C)cc1 (stereo not given) returned VDR inh -20%.
`COc1ccccc1/C=N/NC(=O)CNC(=O)c1ccc(S(=O)(=O)N(C)C)cc1` gave VDR inh 2%.
For COc1ccc(C(=O)NCC(=O)N/N=C/C=C/c2ccccc2)cc1OC the results were VDR inh 7%.
Cc1cccc(N2CCN(C(=O)C3CCN(S(=O)(=O)Cc4ccccc4)CC3)CC2)c1C was read as VDR inh 8%.
`Cc1ccc(-c2[nH]nc(N)c2N=Nc2ccccc2C)cc1` gave VDR inh 8%.
`Cc1ccc(CNC(=O)c2cc(-c3ccccc3C)n(CC3CC(c4cccc([N+](=O)[O-])c4)=NO3)n2)cc1` (stereo not given) gave VDR inh -3%.
Screening c1ccc(CNc2nc(-c3cccnc3)nc3ccccc23)cc1 returned VDR inh 18µM*!.
Cc1cccn2c(=O)c3cc(C(=O)NCCc4ccc(S(N)(=O)=O)cc4)n(C)c3nc12 was read as VDR inh 8%.
Screening Cc1ccc2nc(N(Cc3cccnc3)C(=O)Cc3ccccc3)sc2c1 returned VDR inh 2%.
O=C(CN1CCN(c2ccc(Cl)cc2)CC1)NCc1cccs1 was read as VDR inh -17%.
For O=C(CN1C(=O)c2ccccc2C1=O)Nc1ccc2c(c1)OCO2 the results were VDR inh 2%.
Screening C[C@H](CO)N1C[C@H](C)[C@@H](CN(C)C(=O)Nc2ccccc2)Oc2c(NC(=O)Cc3ccccc3)cccc2C1=O returned VDR inh -13%.
`O=C(/C=C/c1ccccc1Cl)NC1CCCCC1` gave VDR inh -6%.
Screening COc1ccccc1CNC(=O)[C@H](C)NC(=O)C1CCN(C(=O)[C@@H](N)CC(C)C)CC1 returned VDR inh -3%.
`CCC(CC)COC(=O)C(C#N)c1nc2ccccc2nc1N1CCOCC1` (stereo not given) gave VDR inh -5%.
Cc1cc(NC(=O)C(C)SCC(=O)Nc2ccc(Br)cc2Br)no1 (stereo not given) was read as VDR inh -15%.
`Cc1nnn(C23CC4CC(CC(CC(=O)Nc5cccc(F)c5)(C4)C2)C3)n1` gave VDR inh 3%.
For Cc1ccc2nc(N(CCN(C)C)C(=O)/C=C/c3cccs3)sc2c1 the results were VDR inh 0%.
For COc1cccc(CCNC(=O)c2ccc(C#N)cc2)c1 the results were VDR inh -14%.
COCCSc1nnc(NC(=O)C2CC(=O)N(c3ccc(C)cc3)C2)s1 (stereo not given) was read as VDR inh -7%.
Screening Cc1c(NC(=O)c2cc(-c3ccco3)on2)c(=O)n(-c2ccccc2)n1C returned VDR inh 0%.
`CCOC(=O)c1ccc(NC(=O)Nc2ccccn2)cc1` gave VDR inh -9%.
For CCC(CC)c1nnc(NC(=O)c2ccco2)s1 the results were VDR inh 2%.
For CC1CCc2nc(NC(=O)CN3CCOCC3)sc2C1 (stereo not given) the results were VDR inh -9%.
Screening N#Cc1c(Nc2ccc(F)cc2)sc(C(=O)c2ccccc2)c1N returned VDR inh inconclusive.
For Cc1cc(=O)oc2cc(OCC(=O)Nc3cccc(S(=O)(=O)N(C)C)c3)ccc12 the results were VDR inh -10%.
For CCOCCCNC(=O)c1ccc(N2CCCC2)c(NS(=O)(=O)c2ccc(C)cc2)c1 the results were VDR inh 1%.
Screening COc1ccc(CNC(=O)C(c2ccncc2)N(C(=O)Cc2cccs2)c2ccccc2)cc1 (stereo not given) returned VDR inh -2%.
CCN(CC)C(=O)C(=O)c1cccn1-c1cccc(Cl)c1C#N was read as VDR inh -5%.
For O=C(N/N=C/c1ccc(N2CCOCC2)s1)c1ccccc1Cl the results were VDR inh inconclusive.
For Cc1ccc(C)c(Cn2c(C(C)NC(=O)c3ccccc3)nc3ccccc32)c1 (stereo not given) the results were VDR inh -1%.
For O=C(O)C1CCCN1C(=O)Nc1ccccc1 (stereo not given) the results were VDR inh 11%.
Screening Cc1ccc(CN2C(=O)N/C(=C\c3ccc(N4CCOCC4)cc3)C2=O)cc1 returned VDR inh 13%.

Molecules above that have a thiophene ring, fused or not:
Screening Cc1ccc(C)c(S(=O)(=O)c2nnn3c2nc(N2CCCCC2)c2sccc23)c1 returned VDR inh 2%.
Screening Cc1csc2c(N3CCCCC3)ncnc12 returned VDR inh 5%.
Screening C=C(C)CSc1nc2sc3c(c2c(=O)n1C1CCCCC1)CCN(C)C3 returned VDR inh 0%.
For CCN(CC)CC(=O)Nc1sc(C)cc1C(=O)c1ccccc1 the results were VDR inh 6%.
COc1ccc2sc(-c3ccccc3OC)c(-c3ccc4c(c3)OCCO4)c2c1 was read as VDR inh 4%.
OC(C#CCN1CCOCC1)c1cccs1 (stereo not given) was read as VDR inh 2%.
For CCOC(=O)CSc1nc2sc3c(c2c(=O)n1-c1ccccc1)CCN(C(C)C)C3 the results were VDR inh 20%.
O=C(CN1CCN(c2ccc(Cl)cc2)CC1)NCc1cccs1 was read as VDR inh -17%.
For Cc1ccc2nc(N(CCN(C)C)C(=O)/C=C/c3cccs3)sc2c1 the results were VDR inh 0%.
Screening N#Cc1c(Nc2ccc(F)cc2)sc(C(=O)c2ccccc2)c1N returned VDR inh inconclusive.
Screening COc1ccc(CNC(=O)C(c2ccncc2)N(C(=O)Cc2cccs2)c2ccccc2)cc1 (stereo not given) returned VDR inh -2%.
For O=C(N/N=C/c1ccc(N2CCOCC2)s1)c1ccccc1Cl the results were VDR inh inconclusive.

Some of the compounds tested; the hit share may differ from the screen's.
